# Bioassay records from PubChem BioAssay.
# Tg IFNy HTS: T. gondii growth inhibition under IFN-gamma | activity change, negative = inhibition, %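 (about 20 µM by stock and volumes)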 | 69,000 compounds, 3.8% hits | Toxoplasma gondii growth in IFN-gamma-treated host cells; active compounds read low; reference of the scale not given here | AID 1259416;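 active = below -70%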;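 note: host cells are HeLa cells infected with Toxoplasma gondii; parasite growth read as luciferase light; one replicate is shown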
# Active calls of the source: *; i = inactive; & = joins results of further samples.
SMILES,Tg IFNy HTS
COCCN1CCn2cc(CNC(=O)C3CCC3)nc2C1,1
CC1CCN(c2ncnc3c2cnn3CC(=O)Nc2ccc(F)cc2F)CC1,12
CCc1ccc(-c2cc3c(=O)n(Cc4nc(-c5ccc(Cl)cc5)oc4C)ccn3n2)cc1,55
COCCn1c2c(ccc1=O)CC(NC(=O)CNC(C)=O)CC2 (stereo unspecified),-3
COc1ccc(C#Cc2ccc([C@@H]3[C@@H](CO)N4C(=O)CN(C(=O)NC(C)C)C[C@@H]34)cc2)cc1,-20
CCOC(=O)C1CCN(C(=O)c2cc3cc(S(=O)(=O)N(C)C)ccc3n2Cc2ccncc2)CC1,78
COCc1nc(N(C)CCCn2nc(C)cc2C)c2cnn(C)c2n1,4
Cc1noc(C)c1S(=O)(=O)N(C)C[C@@H]1OCCCC[C@@H](C)Oc2ccc(NC(=O)CCC(F)(F)F)cc2C(=O)N([C@H](C)CO)C[C@H]1C,-20
COCCC1COC2(CCN(C(=O)c3ccc[nH]3)CC2)C1 (stereo unspecified),25
CSc1ncc(C(=O)N(C)C(C)Cc2ccccn2)cn1 (stereo unspecified),-7
O=C(Nc1ccc(OC(F)(F)F)cc1)c1c(O)c2ccccc2[nH]c1=O,10
CC1CCN(S(=O)(=O)c2ccc3c(c2)CCC(=O)N3CC(=O)NCc2cccnc2)CC1,21
O=C(Nc1cnn(-c2ncc(N3CCCC3)cn2)c1)C1CCCC1,54
CCCNC(=O)c1cc2c(c(-c3cccc(-c4ccc(F)cc4)c3)n1)[C@H](CCO)N([S@@](=O)C(C)(C)C)C2,-50
CN(C)CCO[C@@H]1C[C@@H]2CN(C(=O)c3cscn3)CCN2C1,9
Cn1nc(CN2CCOC3(CNCCOC3)C2)c2c(Cl)cccc21 (stereo unspecified),10
Cc1cccc(Nc2nc(-c3nnc(-c4cccc(C)c4)o3)nc3ccccc23)c1,-24
COc1ccc(C(=O)NC(=O)NC2(C(Cl)(Cl)Cl)OCCO2)cc1,330
Cc1nc(-c2cccc(F)c2)sc1CCNC(=O)c1cccc(F)c1,12
C/C=C/c1ccccc1[C@H]1[C@@H](C#N)N(C(=O)Cc2ccccn2)[C@@H]1CO,4
N#Cc1cccc(CN2CCc3ncnc(N4CCCC4)c3CC2)c1,-24
Cc1ccc(CN2CCC[C@@]3(C(=O)N(C)C)CN(Cc4cnn(C)c4)C[C@H]3C2)s1,2
CC(=O)N1CCc2c(nnn2CC2CC2)C1COCC1CC1 (stereo unspecified),12
Cc1ccc(S(=O)(=O)N2CCN(S(=O)(=O)c3cc4c5c(c3)CCN5C(=O)CC4)CC2)cc1,9
CC(C)(O)C(=O)N1CCC2(c3ccccc3)CN(Cc3cccnc3)CC2C1 (stereo unspecified),15
CCS(=O)(=O)N1CCCC2(COCCN(c3ccc(C)nn3)C2)C1 (stereo unspecified),3
CCOc1cccc(-c2noc(-c3c(O)c4ccccc4n(CC)c3=O)n2)c1,17
Cc1oc(C2CCN(C(=O)Cc3ccccc3F)CC2)nc1C(=O)N1CCCC1,-42
COc1ccc(-c2cc(-c3cc(=O)[nH]c(-c4cccnc4)n3)no2)cc1,126
Cc1cccc(C)c1CN1CCCC(CNC(=O)c2cnccn2)C1 (stereo unspecified),-3

# Two successive records from above:
SMILES,Tg IFNy HTS
N#Cc1cccc(CN2CCc3ncnc(N4CCCC4)c3CC2)c1,-24
Cc1ccc(CN2CCC[C@@]3(C(=O)N(C)C)CN(Cc4cnn(C)c4)C[C@H]3C2)s1,2

# Later entries.
SMILES,Tg IFNy HTS
O=C(Cc1ccccc1)NO,-36
O=C(Nc1ccncc1)c1ccc(S(=O)(=O)N2CCCC2)cc1,-7
CCn1c(CC2CCN(C(=O)c3cnn4ccn(C)c34)CC2)nn(C)c1=O,1
Clc1ccccc1-c1cc(C2CCN(Cc3cc4n(n3)CCNC4)CC2)[nH]n1,-3
C#CC1(OCC(O)CN2CCN(c3ccccc3OC)CC2)CCCCC1 (stereo unspecified),18
CN(C)CCOCCOc1ccc(Cl)cc1Br,-26
CN1CC(=O)N(c2cccc(F)c2)CC12CCN(C(=O)c1cccs1)C2 (stereo unspecified),10
Cc1ccccc1NC(=O)CCN1C(=O)c2ccccc2C1=O,-2
CO[C@H]1[C@H](NC(=O)c2ccccn2)c2ccccc2C12CCN(C(=O)Cc1ccccc1F)CC2,4
O=C(NCCNc1cccnc1)c1ccc(Cl)s1,2
CCC[C@@H]1C[C@@H](C(=O)N[C@H]([C@@H](C)O)[C@H]2O[C@H](SC)[C@H](O)[C@@H](O)C2O)N(C)C1 (stereo partly specified),-19
Cc1ccc(S(=O)(=O)N[C@H]2C=C[C@H](CC(=O)NCc3ccc(Cl)c(Cl)c3)O[C@H]2CO)cc1,-62
CN1CC2(CCN(S(=O)(=O)C3CC3)CC2)COc2ccccc2S1(=O)=O,-1
CC(C)CCC(O)(CCC(C)C)C(=O)NN1CCCCC1,3
CCOC(=O)c1nc(N2CCC(C(=O)OCC)CC2)c2ccccc2n1,-6
N=C(N)c1ccc(N2CCN(C3CCN(CC(=O)O)CC3)CC2)cc1,11&0
CCN1C(=O)CCC12CCCN(C(=O)NCc1ccccc1)CC2 (stereo unspecified),6
Cc1ccc(C2(O)CCN(C(=O)c3cccc4c3OCC4)CC2)nc1,5
CN(C)C(=O)N1Cc2nnn(C)c2C(COCCN2CCCC2)C1 (stereo unspecified),13
C[C@H](CO)N1C[C@H](C)[C@H](CN(C)S(=O)(=O)c2cccs2)Oc2ccc(NC(=O)Nc3cccc4ccccc34)cc2C1=O,10
CCN1CCN(C(=O)c2ccc(N3CCC(N4CCC(Oc5ccc(F)cc5)CC4)CC3)cc2)CC1,2
Cc1cc(C)cc(NC(=O)N2CCCC2C(=O)Nc2ccc(-n3cnnn3)c(C)c2)c1 (stereo unspecified),-11
CC1CCCCN1CCNS(=O)(=O)c1cc(-c2nc(C(C)(C)C)cs2)cs1 (stereo unspecified),-24
COc1ccc(NC(=O)[C@@H](OC)c2ccccc2)c(NC(=O)C(C)C)c1,-6
Fc1ccccc1OC[C@@H]1CO[C@@H]2CN(c3cnccn3)C[C@@H]12,11
CC(C)NC(=O)N1[C@H](CO)[C@@H]2c3ccccc3N(C)C[C@@H]21,6
COCC(=O)N1Cc2nccn2CC(Cn2ncccc2=O)C1 (stereo unspecified),3
Cc1nc(-c2ccc(Cl)cc2)sc1CCNC(=O)c1ccc(OC(C)C)cc1,-54
Cc1ccc(-c2ccc(S(N)(=O)=O)cc2F)c(-n2cccn2)c1,0
CC(C)N1C2CCC1CN(C(=O)c1cccc(C#N)c1)C2,-9
Cc1nc(C(=O)NCc2cc(F)cc3c2OCOC3)sc1-c1ccc2c(c1)CCO2,-7
Cc1cc(C)n(CCCC(=O)Nc2cccc(-c3ccc(F)cc3)c2)c(=O)n1,-5
O=c1c2c3c(sc2ncn1Cc1ccccc1Cn1cccn1)CNCC3,-28
COc1cc(N2CCC[C@@]3(C(=O)O)CN(C(C)=O)C[C@H]3C2)ncn1,-5
CC1COC2(CCN(C(=O)c3nn(C)c4ccccc34)C2)C1 (stereo unspecified),-30
CCCN1C[C@H](C)[C@H](OC)CN(C)C(=O)c2ccc(NS(=O)(=O)c3cn(C)cn3)cc2OC[C@@H]1C,11
C=CCn1cc(-c2c(-c3ccccc3)ncn2[C@H](CO)c2ccccc2)cn1,-8
Nc1nnc(CC(=O)N2CCN(c3ccccc3C(F)(F)F)CC2)s1,-10
O=C(O)CC1COCCN1C(=O)c1ccc(NC(=O)C2CCC2)cc1 (stereo unspecified),1
CCCN1C[C@H](C)[C@H](OC)CN(C)C(=O)c2cc(NC(=O)Nc3cccc(F)c3)ccc2OC[C@H]1C,i
CCc1csc(CNC(=O)c2ccc(N[C@@H]3C[C@@H](CO)N(C)C3)nc2)n1,14
COc1ccc(S(=O)(=O)n2cnc3ccccc32)cc1OC,-27
O=S(=O)(NCC1CCCO1)c1ccc(S(=O)(=O)n2cnc3ccccc32)cc1 (stereo unspecified),22
S=c1[nH]nc(-c2cccnc2)n1CCc1ccccc1,34
C=CCN(Cc1ccc2c(c1)OCCCO2)Cc1ccco1,3
Cc1ccc(CN(Cc2ccc3c(c2)OCO3)Cc2cnc(C)[nH]2)cc1,-28
Cc1cccc(NCc2cc3cc(C)cc(C)c3[nH]c2=O)c1,35
Nc1cc(N2CC[C@@H](N3CCN(c4ccccc4F)CC3)[C@H](O)C2)ncn1,-3
O=C(CSc1nc(-c2ccccc2)nc2ccccc12)Nc1ccc2c(c1)OCCO2,51
CO[C@@H]1CN(C)C(=O)c2cc(NC(=O)c3ccc4c(c3)OCO4)ccc2OC[C@H](C)N(CCC(F)(F)F)C[C@H]1C,-24

# 6 of the compounds above, tab-delimited.
Molecule	Tg IFNy HTS
COc1ccc(S(=O)(=O)n2cnc3ccccc32)cc1OC	-27
O=S(=O)(NCC1CCCO1)c1ccc(S(=O)(=O)n2cnc3ccccc32)cc1 (stereo unspecified)	22
S=c1[nH]nc(-c2cccnc2)n1CCc1ccccc1	34
C=CCN(Cc1ccc2c(c1)OCCCO2)Cc1ccco1	3
Cc1ccc(CN(Cc2ccc3c(c2)OCO3)Cc2cnc(C)[nH]2)cc1	-28
Cc1cccc(NCc2cc3cc(C)cc(C)c3[nH]c2=O)c1	35

# The results go on:
SMILES,Tg IFNy HTS
Cc1[nH]c(-c2ccccc2)nc1C(=O)N1CCC(O)(CO)CC1,5
CC(=O)N(CCC1(C(C)C)CCOC(C)(C)C1)Cc1ccco1 (stereo unspecified),10
Cc1cc(C)n(C2CCN(Cc3cccn3S(=O)(=O)c3ccccc3)C2)n1 (stereo unspecified),-6
CC(Cc1cnccn1)Nc1nc(CCN)nc2ccccc12 (stereo unspecified),6
COc1cc2c(cc1CN(Cc1nccn1C)C1CC1)CCC2,-14
CCCCN(CC)C(=O)c1ccc(-c2nc(CN3CCN(c4ccccc4)CC3)c(C)o2)cc1,-69
N#C[C@H]1[C@H](c2ccc(-c3cccc(F)c3)cc2)[C@H](CO)N1C(=O)NC1CCCC1,-45
O=C(COc1ccc(F)cc1)N1CCC2(CC1)Nc1ccc(Cl)cc1-n1cccc12,-115*
CCOc1cccc(C(=O)N2C[C@@H]3COC[C@]3(COCC3CC3)C2)c1,98
Cc1n[nH]c(C)c1Cc1nc(C2(c3ccc(F)cc3)CCOC2)no1 (stereo unspecified),-3
CS(=O)(=O)N1CCCC12CCCN(C(=O)Cc1ccsc1)C2 (stereo unspecified),33
CC(=O)CSc1ccc(C(F)(F)F)cn1,30
Cc1ccc2cc(C)c3nn(CCNC(=O)C4CSC(c5ccncc5)=N4)c(=O)n3c2c1 (stereo unspecified),-110*
CCN(C(=O)c1cc2cccnc2n(Cc2ccccc2)c1=O)c1cccc(C)c1,-16
CC1CCC(C2OC3CC4C5CCC6CC(O)CCC6(C)C5=CCC4(C)C3C2C)OC1 (stereo unspecified),-2
O=S(=O)(Nc1ccc(-n2cccc2)cc1)c1ccc(Cl)c(Cl)c1,-10
N=c1c2c3c(sc2ncn1CCCN1CCOCC1)CCCCC3,1
Cc1cc(C(F)(F)F)nn1CC(=O)Nc1cccc(O)c1,0
Cc1ccc(F)cc1NC(=O)c1c(O)c2cccnc2n(-c2cccc(F)c2)c1=O,-27
CCn1ccnc1CN1CCCCCC1Cc1c(C(N)=O)sc2ccccc12 (stereo unspecified),29

# Gathered by group, the entries above containing two or more sulfur atoms (6)
SMILES,Tg IFNy HTS
Cc1ccc(S(=O)(=O)N2CCN(S(=O)(=O)c3cc4c5c(c3)CCN5C(=O)CC4)CC2)cc1,9
CN1CC2(CCN(S(=O)(=O)C3CC3)CC2)COc2ccccc2S1(=O)=O,-1
C[C@H](CO)N1C[C@H](C)[C@H](CN(C)S(=O)(=O)c2cccs2)Oc2ccc(NC(=O)Nc3cccc4ccccc34)cc2C1=O,10
CC1CCCCN1CCNS(=O)(=O)c1cc(-c2nc(C(C)(C)C)cs2)cs1 (stereo unspecified),-24
O=S(=O)(NCC1CCCO1)c1ccc(S(=O)(=O)n2cnc3ccccc32)cc1 (stereo unspecified),22
CS(=O)(=O)N1CCCC12CCCN(C(=O)Cc1ccsc1)C2 (stereo unspecified),33

# Going on with the list.
SMILES,Tg IFNy HTS
Cc1nn(CCS(=O)(=O)c2ccc(Cl)cc2)c(C)c1Br,-49
Cc1ccc(-c2csnn2)cc1NC(=O)CCc1nc2cc(Cl)ccc2n1C,-8
CC[N+]1(CC)CC2=Cc3ccccc3CC2C1 (stereo unspecified),57
CCN1CC(NC(=O)CNS(=O)(=O)c2ccc(F)cc2C)CC1=O (stereo unspecified),6
CCN1CCC2(CC1)OC(=O)C(C)=C2C(=O)Nc1c(C)cc(C)cc1C,80
COc1cccc(CNC(=O)Cn2c(=O)cc(-c3nc(C)no3)c3ccccc32)c1,18
Oc1ccc([C@H]2Oc3cc(O)cc(O)c3C[C@H]2O)cc1,7
CCCC(=O)N1C[C@@H]2[C@H](c3ccccc31)[C@H](CO)N2Cc1cocn1,3
CCc1nc(C)c(C(=O)N(C)Cc2csc(C(C)C)n2)o1,-92*
CN1CCCN(CC(=O)NCc2ccccc2Cn2cccn2)CC1,1
Cc1ccc(-c2noc(-c3c(O)c4ccccc4n(C)c3=O)n2)c(C)c1,-8
O=C(Cn1ncc2c(N3CCCC3)ncnc21)NCc1ccccc1Cl,95
C[C@H]1CN([C@@H](C)CO)C(=O)c2cc(-c3ccc(F)cc3)cnc2O[C@H]1CN(C)S(C)(=O)=O,-3
Cc1ccc(C)c(NC(=O)CC(=O)NCCc2cnc[nH]2)c1,-2
Cc1noc(C)c1CCC(=O)N1CC(=O)N(C2CCCCC2)CC(OCc2cccnc2)C1 (stereo unspecified),-3
COCCN1C[C@H]2[C@H](OC)CCN(S(=O)(=O)c3cn(C)cn3)[C@H]2C1,5
CCS(=O)(=O)N1CCC2(CC1)CN(Cc1nccs1)CCO2,14

# This is a subset; rates above refer to the full screens.
